# Screening results (PubChem BioAssay)
# VDR inhibitor: inhibitors of human vitamin D receptor; VDR-SRC2-3 peptide fluorescence polarization, 2 h; actives 0.93% (n = 400,000); P11473; Potency, µM, inactives show max response, negative = inhibition, actives largely listed as inhibitors; active means well fitted inhibition curve with a large enough effect; inconclusive means small, poorly fitted or top-dose-only effect, or another doubt; inactive means no such curve, though single readings can be large or run the other way; further: series mostly up to about 120 µM
# Target sequence (P11473 whole entry, looked up): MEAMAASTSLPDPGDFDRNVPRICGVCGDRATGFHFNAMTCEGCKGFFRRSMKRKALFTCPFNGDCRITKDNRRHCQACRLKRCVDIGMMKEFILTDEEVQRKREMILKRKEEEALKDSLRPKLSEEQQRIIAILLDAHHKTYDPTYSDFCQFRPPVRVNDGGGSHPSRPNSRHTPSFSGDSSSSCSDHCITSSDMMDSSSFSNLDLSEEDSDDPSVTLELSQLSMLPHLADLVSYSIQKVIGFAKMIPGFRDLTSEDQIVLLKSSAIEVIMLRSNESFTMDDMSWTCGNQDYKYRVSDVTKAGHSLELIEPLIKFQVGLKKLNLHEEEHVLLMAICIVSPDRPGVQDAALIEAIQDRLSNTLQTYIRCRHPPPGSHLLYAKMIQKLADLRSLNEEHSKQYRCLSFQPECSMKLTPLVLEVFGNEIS
#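 Measured by FP: displacement of SRC2-3 coactivator peptide from VDR by library compounds, following a two-hour ambient incubation.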
# Numbers without * were called inactive; u = inconclusive; & = joins results of further samples; ! = a repeat was not active; [ ] = remark or other dose. On the % scale 0 is the no-effect control and ±100 the full control effect; potency means the concentration at half of the fitted maximal effect.
SMILES,VDR inhibitor
CN[C@@H](C)[C@H]1CC[C@@H](N)[C@@H](O[C@@H]2[C@@H](O)[C@@H](O[C@H]3OC[C@@](C)(O)[C@@H](NC)[C@@H]3O)[C@H](N)C[C@@H]2N)O1 (tested in a mixture with another compound),4%
COP(=O)(OC)/C(C=O)=N/Nc1ccc([N+](=O)[O-])cc1,-10%
CC(C)OC(=O)C(O)(c1ccc(Cl)cc1)c1ccc(Cl)cc1,-2%
CCCCCCC(C)(C)c1ccc([C@@H]2C[C@H](O)CC[C@@H]2CCCO)c(O)c1,-2%
Cc1nc2nc(SCC(=O)N3CCC4(CC3)OCCO4)nn2c(C)c1Cc1ccccc1,8%
N=Cc1c(O)n(-c2ccc(C34CC5CC(CC(C5)C3)C4)cc2)c(=O)[nH]c1=O,-25%
O=c1[nH]c(N2CCN(Cc3ccc4c(c3)OCO4)CC2)nc2c1CCC2,-11%
CN1C(=O)C(=Cc2coc3ccccc3c2=O)C(=O)N(C)C1=O,u
COc1ccc(CCNCc2ccccc2F)cc1OC,-7%
COc1cc(CNCCc2ccc3c(c2)OCO3)ccc1O,-4%
CCOP(=O)(OCC)/C(C#N)=C/c1ccc(Br)cc1,u
COc1ccc(CCn2c(O)c(C=NCCN3CCCCC3)c(=O)[nH]c2=O)cc1OC,-1%
CN1CCN(c2ncnc(Cl)c2N)CC1,7%
CCOC(=O)c1sc(/N=C/c2c(O)n(-c3cccc(C)c3)c(=O)[nH]c2=O)c(C#N)c1C,u
CCCCCCCCCCCCCCCCOC[C@@H](COP(=O)([O-])OCC[N+](C)(C)C)OC(C)=O,-6%&1%
CN1/C(=C\C=C2C(=O)NC(=S)NC2=O)C(C)(C)c2ccccc21,57%[activator]
COC(=O)C1=C(c2ccc(-c3ccccc3)c(F)c2)C[C@@H]2CC[C@H]1N2C(=O)NCCOc1ccccc1Cl,15%
CC12CCC3c4ccc(OC(=O)N(CCCl)CCCl)cc4CCC3C1CCC2O (configuration not stated),-4%
CCN(CCCl)Cc1ccccc1Br,8%&-14%
COc1nc(NCC2CCCO2)nc(N2CC3CC(C2)c2cccc(=O)n2C3)n1 (configuration not stated),-11%
CS(=N)(=O)CC[C@H](N)C(=O)O (some centres not stated),5%
O=C1C=CC2C3C(=O)N(c4ccccc4)C(=O)C3C1N2Cc1ccccc1 (configuration not stated),u
CCn1c(O)c(/C=N/N2CCOCC2)c(=O)n(CC)c1=S,3%
Cn1c(O)c(C(=O)c2ccccc2F)c(=O)n(C)c1=O,-14%
OC(CC#CCN1CCCCCC1)(c1ccccc1)C1CCCC1 (configuration not stated),-11%

# Structures shown so far with a cyano group, in the order listed:
SMILES,VDR inhibitor
CCOP(=O)(OCC)/C(C#N)=C/c1ccc(Br)cc1,u
CCOC(=O)c1sc(/N=C/c2c(O)n(-c3cccc(C)c3)c(=O)[nH]c2=O)c(C#N)c1C,u

# Following part.
SMILES,VDR inhibitor
COc1cc(/C=N/NC(=O)Cn2c([N+](=O)[O-])cnc2C)ccc1OC(=O)N(C)C,5%
O=C1NC(=S)N(c2ccc(F)cc2)C(=O)/C1=C\c1ccoc1,u
COc1cc2c(cc1OC)C(C(=O)NCCC(C)C)C1CCCCN1C2=O (configuration not stated),-10%
Cc1[nH]c2ccc(OCc3ccccc3)cc2c1CCN,-5%
COC(=O)C1=C(c2cccc(C#N)c2)C[C@@H]2CC[C@H]1N2C(=O)NC1CC1,4%
Fc1ccc2c(c1)nnn2C1CCN(Cc2c(Cl)cccc2Cl)CC1,10%
Cn1cc(C(=O)OCC(=O)NC2(C#N)CCCC2)c2ccccc21,6%
C[C@]12C=CC(=O)C=C1CC[C@@H]1[C@@H]2CC[C@@]2(C)[C@H]1CC[C@]2(C)O,-2%
O=c1[nH]c(O)c(N=Nc2cccc(S(=O)(=O)N3CCOCC3)c2)c(=O)[nH]1,5%
O=C(CCN1CCN(c2ccccc2)CC1)c1ccc(Br)cc1,89µM*
CC(=O)N1CN2CN(C(C)=O)CC(C(=O)c3ccc(Br)cc3)(C2)C1,7%
CC1C(=O)OC2O[C@]3(C)CC[C@H]4C(C)CCC1[C@]24OO3 (some centres not stated),-10%
COc1ccc(OC)c(C2=NOC(C(=O)N3CCC4(CC3)OCCO4)C2)c1 (configuration not stated),-16%
CC1CCN(C(CC(=O)c2ccccc2)C(=O)c2ccccc2)CC1 (configuration not stated),25µM*
Clc1ccc(OCC#CCN2CCOCC2)cc1,-12%
O=C=NCCCCN=C=O,-13%
CC(Cc1ccccc1)NC=O (configuration not stated),-1%&6%
C[N+](C)(C)CC#CCOC(=O)Nc1cccc(Cl)c1,50µM*!
CCC1(OC(=O)c2ccccc2)CC(C)N(C)CC1C (configuration not stated),-5%
COC(=O)C1=C(c2ccccc2OCc2ccccc2)C[C@@H]2CC[C@H]1N2C(=O)NCCOc1ccc(OC)cc1,1%
CCN(CC)CCCNC(=O)c1c(O)c2ccccc2n(Cc2ccccc2)c1=O,-5%
CCC1(CC)C(=O)NC(=O)NC1=O,-6%
O=C(CNC(=O)c1ccccc1Cl)Nc1ccc(Br)cc1C(=O)c1ccccc1,11%
COc1ccccc1CN1CCN(C(=O)COc2ccc3ccccc3c2)CC1,-3%
C[C@H]1CC[C@@H]2N(C1)C[C@H]1[C@@H]3C[C@H]4[C@@H](CC(=O)[C@H]5C[C@@H](O)CC[C@@]54C)[C@@H]3CC[C@H]1[C@]2(C)O,u

# Continuation.
SMILES,VDR inhibitor
O=C1NC(=S)N(c2ccc(F)cc2)C(=O)/C1=C/c1ccccc1O,-30%
COC(=O)N1CCN(C(=O)Cc2ccc(Cl)c(Cl)c2)C(CN2CCCC2)C1 (configuration not stated),-15%
CCOC(=O)c1c(NC(=O)c2ccc(OC)cc2)sc2c1CCCCC2,u
S=C1CN=C(c2ccccc2)c2cc(Cl)ccc2N1,-10%
Clc1ccc(CNCCc2ccc3c(c2)OCO3)cc1,-11%
Cc1cccc(N2C(=O)NC(=O)/C(=C/c3cc4c(cc3[N+](=O)[O-])OCO4)C2=O)c1,u
COc1ccc(CC(C)NCCc2ccc(OC)c(OC)c2)cc1 (configuration not stated),3%
O=c1[nH]c(=S)[nH]c(O)c1/C=C1/C=c2ccccc2=N1,-20%
CC(C)CCn1c(N)c(C(=O)NCc2cccs2)c2nc3ccccc3nc21,-17%
CC1=C[C@H]2[C@]3(O)C(C=C(CO)C[C@]2(O)C1=O)[C@@H]1C(C)(C)[C@]1(O)[C@H](O)[C@H]3C (some centres not stated),4%
CC(Cc1ccccc1)NC(=O)CN1CCCC1=O (configuration not stated),7%
CC12CCCCC1=NC(c1ccc(Br)cc1)N2O (configuration not stated),-14%
Cc1nc2ccccc2c(=O)n1-c1ccc(F)cc1,5%
COc1ccccc1N1CCN(Cc2ccccc2F)CC1,-3%
Fc1cccc(F)c1CN1CCN(c2ccc(Cl)cc2)CC1,-20%
Fc1ccccc1CCNCc1ccccc1,9%
O=C(CN1CCCC1=O)Nc1ccccc1,3%
O=C(NCC(c1cccnc1)N1CCN(c2ccccc2)CC1)Oc1ccccc1 (configuration not stated),-8%
COc1cc(CC(C)N)c(OC)cc1I (configuration not stated),4%&-5%
OC(CNC1CCCCC1)C(F)(F)F (configuration not stated),10%
COc1ccc(C(=O)OC2C[C@H]3CC[C@H](C2)N3C)cc1OC (some centres not stated),-8%
CCOC(=O)c1c(C)n(CCN2CCN(C)CC2)c2ccc(OC)cc12,5%
CCOC(=O)C1=C(N)Oc2cc(C)oc(=O)c2C12C(=O)N1c3c(cccc32)C(C)=CC1(C)C (configuration not stated),-2%
C/C(=N\Nc1ccccc1)c1c(O)n(Cc2ccccc2)c(=O)[nH]c1=O,-28%
CCC(CC)NC1CCCCC1OC (configuration not stated),-13%

# (list continues)
SMILES,VDR inhibitor
CC(=O)Nc1ccc(S(=O)(=O)N2Cc3cnnn3-c3ccccc3C2C#N)cc1 (configuration not stated),-7%
COc1ccc(-c2nn(CCC#N)cc2C(=O)Nc2cccc([N+](=O)[O-])c2)cc1OC,-12%
O=C(C[N+]12CCC(CC1)C(O)C2)c1ccc(Br)cc1 (configuration not stated),2%
Cc1cc(OCC(=O)N2CCN(CCc3ccncc3)CC2)ccc1Cl,8%
O=C(c1ccc(Cl)cc1)C1CCCN(Cc2ccc3nonc3c2)C1 (configuration not stated),-13%
CCOC(=O)C1=C(C)OC(N)=C(C(=O)OCC)[C@@]12C(=O)N(CC(N)=O)c1ccccc12,-19%
O=C(c1ccccc1F)c1cn(Cc2ccc(F)cc2)c2ccccc12,13%
C[C@]12CC[C@H](OC(=O)CCC(=O)O)CC1=CCC1C2CC[C@@]2(C)C1CC[C@@H]2OC(=O)CCC(=O)O (some centres not stated),-25%
COc1ccc(Cn2c(O)c(C=Nc3c(C)n(C)n(-c4ccccc4)c3=O)c(=O)[nH]c2=O)cc1,29%
Cc1cc(OC(=O)N(C)C)nc(-c2ccc(C)c(Cl)c2)n1,9%
CC(NCc1cccc(Cl)c1Cl)C(O)c1ccccc1 (configuration not stated),2%
O=c1[nH]c(=O)n(-c2ccc(Br)cc2)c(O)c1C=NC(CO)(CO)CO,-2%
CN1C(=O)C(=CN2CCN(C(=O)c3ccco3)CC2)C(=O)N(C)C1=S,-6%
CCC(=Nc1ccc2c(c1)CCC2)c1c(O)n(-c2ccc(OC)cc2)c(=O)[nH]c1=O,-16%
CC(=O)Nc1ccccc1C(=O)OCc1cccc(F)c1,-4%
Cc1cc(/C=C2\C(=O)NC(=O)N(Cc3ccco3)C2=O)c(C)n1-c1ccc(C(=O)O)cc1,9%
O=C(c1cc(S(=O)(=O)N2CCC3(CC2)OCCO3)ccc1F)N1CCC2(CC1)OCCO2,-20%
C=CCN1C(=O)/C(=C/c2ccc(Br)s2)C(=O)NC1=S,20µM*
CC1OC(OC2C=C3CCC4C(CCC5(C)C(c6ccc(=O)oc6)CCC45O)C3(C)CC2)C(O)C(OC2OC(CO)C(O)C(O)C2O)C1O (configuration not stated),1%
CN1CCN(c2cc([N+](=O)[O-])ccc2Cl)CC1,-13%
CN1CCc2c(C#N)c(Cl)nc(Cl)c2C1,-6%
CCCC1=C(C(=O)OCC)C2(C(=O)Nc3ccccc32)C(C#N)=C(N)O1 (configuration not stated),15%
COc1ccc(CCn2c(O)c(C=NCCCO)c(=O)[nH]c2=O)cc1OC,11%
COc1cc(CN2CCN(C(=O)COc3ccccc3)CC2)cc(OC)c1OC,7%
OC(CNCCc1c[nH]c2ccccc12)c1ccccc1 (configuration not stated),-8%

# Going on with the list.
SMILES,VDR inhibitor
O=Cc1cn(Cc2ccc([N+](=O)[O-])cc2)c2ccccc12,-1%
CCN(CC)C(=O)N[C@@H]1C[C@H]2c3cccc4[nH]cc(c34)C[C@@H]2N(C)C1,3%&-2%
COc1ccccc1N1CCNCC1,-10%&3%&7%&-3%
NCCc1c[nH]c2ccc(OCc3ccccc3)cc12,1%
COc1cccc(N2C(=O)NC(=O)C3(Cc4cc(C)ccc4N(C)C3)C2=O)c1 (configuration not stated),-8%
c1ccc(C(OCCN2CCN(c3ncccn3)CC2)c2ccccc2)cc1,36%[activator]
C[C@@H]1O[C@@H](O[C@@H]2C=C3CC[C@@H]4C(CC[C@]5(C)[C@@H](c6ccc(=O)oc6)CC[C@]45O)[C@@]3(C)CC2)[C@H](O)[C@H](O)[C@H]1O (some centres not stated),11%
COc1ccccc1CN1CCN(C(=O)COc2ccccc2)CC1,-9%
COc1ccc(-c2cc(=O)c3c(OC)c(OC)c(OC)cc3o2)cc1,-21%
CC1CCN(CC(=O)c2ccccc2Cl)CC1,u
Cc1cc(/C=C2\C(=O)NC(=O)N(c3ccc(Cl)cc3)C2=O)c(C)n1-c1cccc(C(=O)O)c1,8%
O=C(OCC(=O)c1ccc([N+](=O)[O-])cc1)/C(=C/c1ccc(Cl)cc1)NC(=O)c1ccccc1,-2%
O=c1c2ccccc2nc(-c2ccc(Cl)cc2Cl)n1-c1ccncc1,-3%
NNP(=O)(CC(=O)c1ccccc1)c1ccccc1 (configuration not stated),12%
OCC(Br)(Br)Br,4%
Cc1ccc(-c2nc3ccccc3c(=O)n2-c2ccc(Br)cn2)cc1,-3%
COc1ccc(-c2cc(=Nc3ccccc3)c3cc(C)ccc3o2)cc1,-9%
CC(=O)OC1CN2CCC1CC2 (configuration not stated),-4%
Nc1ccc(Cl)c(Cl)c1,0%
CCCCn1c(O)c(C(CC)=NCCN2CCCCC2)c(=O)[nH]c1=O,-16%

# Molecules from the list above containing an NH in an aromatic ring (16):
SMILES,VDR inhibitor
N=Cc1c(O)n(-c2ccc(C34CC5CC(CC(C5)C3)C4)cc2)c(=O)[nH]c1=O,-25%
O=c1[nH]c(N2CCN(Cc3ccc4c(c3)OCO4)CC2)nc2c1CCC2,-11%
COc1ccc(CCn2c(O)c(C=NCCN3CCCCC3)c(=O)[nH]c2=O)cc1OC,-1%
CCOC(=O)c1sc(/N=C/c2c(O)n(-c3cccc(C)c3)c(=O)[nH]c2=O)c(C#N)c1C,u
Cc1[nH]c2ccc(OCc3ccccc3)cc2c1CCN,-5%
O=c1[nH]c(O)c(N=Nc2cccc(S(=O)(=O)N3CCOCC3)c2)c(=O)[nH]1,5%
O=c1[nH]c(=S)[nH]c(O)c1/C=C1/C=c2ccccc2=N1,-20%
C/C(=N\Nc1ccccc1)c1c(O)n(Cc2ccccc2)c(=O)[nH]c1=O,-28%
COc1ccc(Cn2c(O)c(C=Nc3c(C)n(C)n(-c4ccccc4)c3=O)c(=O)[nH]c2=O)cc1,29%
O=c1[nH]c(=O)n(-c2ccc(Br)cc2)c(O)c1C=NC(CO)(CO)CO,-2%
CCC(=Nc1ccc2c(c1)CCC2)c1c(O)n(-c2ccc(OC)cc2)c(=O)[nH]c1=O,-16%
COc1ccc(CCn2c(O)c(C=NCCCO)c(=O)[nH]c2=O)cc1OC,11%
OC(CNCCc1c[nH]c2ccccc12)c1ccccc1 (configuration not stated),-8%
CCN(CC)C(=O)N[C@@H]1C[C@H]2c3cccc4[nH]cc(c34)C[C@@H]2N(C)C1,3%&-2%
NCCc1c[nH]c2ccc(OCc3ccccc3)cc12,1%
CCCCn1c(O)c(C(CC)=NCCN2CCCCC2)c(=O)[nH]c1=O,-16%

# The list is partial, so the mix of outcomes need not match the whole.
